Screening data from PubChem.
INS promoter inh: inhibitors of insulin promoter-driven GFP, primary screen, imaging, TRM-6 cells (human fetal islet line), eGFP reporter, cell count. reporter expression induced with tamoxifen. inhibition, % at 2 µM. 130,000 tested, 0.9% active. AID 1273, 2008;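 active = inhibition above the mean plus 3 SD, with well images judged a real hit on visual review, cut at about 60% in these data, passing the limit was not always enough; inconclusive = inhibition over the cutoff but images rejected on review; inactive = inhibition not above the cutoff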
GALR2 agonist: GALR2 receptor agonists, primary screen, cell-based; AID 803, 2007; activation, %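 (tested at 5 µM)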; 140,000 tested, 0.48% active; GALR2-expressing cells, agonist activation read-out;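 active = above mean plus 3 SD of all compounds, about 5% in these data, not always enough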;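 note: 0% = vehicle buffer wells and 100% = reference agonist at full effect; tested in CHO reporter cells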
Target sequence (O43603 whole entry, looked up): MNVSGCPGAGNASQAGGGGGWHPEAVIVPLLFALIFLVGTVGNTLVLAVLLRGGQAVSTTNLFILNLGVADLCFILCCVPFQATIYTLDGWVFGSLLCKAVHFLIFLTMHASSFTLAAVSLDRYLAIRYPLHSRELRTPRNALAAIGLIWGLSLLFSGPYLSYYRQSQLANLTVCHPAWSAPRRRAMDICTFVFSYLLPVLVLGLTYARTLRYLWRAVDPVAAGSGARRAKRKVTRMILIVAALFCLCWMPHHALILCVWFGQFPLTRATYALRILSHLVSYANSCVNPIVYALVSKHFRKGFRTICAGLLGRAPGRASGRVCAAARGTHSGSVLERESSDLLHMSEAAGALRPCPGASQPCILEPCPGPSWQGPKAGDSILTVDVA
HSV replic up: enhancers of HSV replication in host cells, fold increase, host cell viability; maximum fold increase; AID 1956, 2009; 220,000 tested, 0.005% active; HSV replication augmentation in cells;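 active = peak rise of 1.5-fold or more in the series; inconclusive = self-fluorescent or not available for retest; tested in PC3 cells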;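 note: first round at 10 µM; read as green reporter fluorescence; hits show the peak of a series up to 25 µM; 1 = signal of infected wells without compound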
PKD1 kinase inh: inhibitors of human PKD1 kinase, biochemical, fluorescence polarization. Serine/threonine-protein kinase D1 (Homo sapiens), Q15139. PKD1 kinase fluorescence polarization assay. inhibition, %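 (about 10 µM by stock and volumes)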. 200,000 tested, 0.056% active;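 active = inhibition of 50% or more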;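 note: controls were vehicle for no effect and a reference inhibitor for full effect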
RGS16-Gao: modulators of RGS16 binding to Galphao, primary screen, biochemical, human proteins, multiplexed bead flow cytometry; bead-based flow cytometry RGS16-Galphao binding, fluorescence; actives lie on both sides; binding response (% of control), % at 10 µM; 220,000 tested, 0.38% active;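 active = below 25% or above 175%, edge rows of some plates excepted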;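 note: Galphao activated by GDP with aluminum fluoride before binding; 100% = wells without compound and 0% = beads without RGS; some results beyond the cut were filed as inactive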
Target sequence (O15492 whole entry, looked up): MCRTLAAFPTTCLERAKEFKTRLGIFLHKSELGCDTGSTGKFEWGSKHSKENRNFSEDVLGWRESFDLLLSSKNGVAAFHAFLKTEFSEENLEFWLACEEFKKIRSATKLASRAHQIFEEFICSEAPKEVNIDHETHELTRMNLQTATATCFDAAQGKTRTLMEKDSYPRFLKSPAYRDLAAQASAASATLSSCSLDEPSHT
Target sequence (P09471 whole entry, looked up): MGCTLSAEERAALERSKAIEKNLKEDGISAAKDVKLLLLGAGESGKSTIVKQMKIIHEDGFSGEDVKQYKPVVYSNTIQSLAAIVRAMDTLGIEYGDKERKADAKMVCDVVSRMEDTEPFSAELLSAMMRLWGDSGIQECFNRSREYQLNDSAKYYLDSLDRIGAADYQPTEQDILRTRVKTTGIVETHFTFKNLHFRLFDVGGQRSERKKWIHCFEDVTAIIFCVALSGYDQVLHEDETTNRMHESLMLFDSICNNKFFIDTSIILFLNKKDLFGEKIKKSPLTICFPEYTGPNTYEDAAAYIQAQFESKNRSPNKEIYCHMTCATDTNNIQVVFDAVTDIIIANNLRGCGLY
INS promoter inh cell count: also measured in INS promoter inh; calls as there; normalized cell count, %; measured here: cell count, toxicity; reference of the scale not given here;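 cells exposed to compound for 48 h; stained nuclei by imaging scaled within each plate; lower means fewer cells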
HSV replic up primary fold: recorded beside HSV replic up, whose call it bears; fold increase; compound at 10 µM; measured here: primary screen fold increase 10 uM; tested in PC3 cells;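 GFP signal in the first replicate; 1 = infected wells without compound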
* marks the source's active call; other numbers are inactive results; i = inactive; ? = inconclusive; · = no result given.

No.	SMILES	INS promoter inh	INS promoter inh cell count	GALR2 agonist	HSV replic up	HSV replic up primary fold	PKD1 kinase inh	RGS16-Gao
1	COc1ccc(-c2cc(=O)c3ccccc3n2C)cc1	50	154	-3.3	i	0.95	1	98
2	CCN(C(=O)COC(=O)c1cnc(C)cn1)C1CCCCC1	-16	119	-3.3	i	0.98	-10	103
3	N#Cc1ccccc1Sc1ccccc1C(=O)Nc1ccccc1	10	66	-1.1	i	0.93	6	100
4	CCOC(=O)c1sc(NC(=O)/C=C/c2ccc(F)cc2)nc1C	·	·	·	i	0.92	-1	101
5	O=C(N/N=C/c1ccco1)c1cc([N+](=O)[O-])cc([N+](=O)[O-])c1	16	118	-0.7	i	0.9	-7	101
6	COc1ccc(C(=O)OCC(=O)c2ccccc2)cc1S(=O)(=O)N1CCOCC1	7	136	-0.2	i	0.89	-3	101
7	CC1=C(C(=O)OCC(C)C)C(c2ccsc2)C2=C(CCCC2=O)N1 (configuration not stated)	18	126	-0.2	i	0.96	8	106
8	CN(C)CC(C)(C)CNC(=O)c1cc(=O)c2ccccc2o1	·	·	-3.5	i	0.93	0	102
9	COC(=O)[C@H](CCSC)NC(=O)Nc1ccc(C)cc1	·	·	-0.1	i	0.99	0	98
10	CCc1nn(CC(=O)N2CCN(Cc3ccc4c(c3)OCO4)CC2)c(=O)c2cc3occc3n12	31	88	-2.0	i	0.94	-5	103
11	Cn1c(=O)c2c(nc(CN3CCc4ccccc4C3)n2CCCO)n(C)c1=O	60	107	·	i	0.92	0	106
12	COc1ccc(C(=O)NCc2cn3ccccc3n2)cc1	-150	89	-3.5	i	0.92	-7	96
13	COc1cc(C2C(C#N)=C(N)N(c3cccnc3)C3=C2C(=O)CC(C)(C)C3)ccc1O (configuration not stated)	29	79	-2.4	i	0.92	-4	112
14	COc1cc(CN2CCC(C(=O)N3CCCC(C)C3)CC2)cc(Br)c1O (configuration not stated)	-50	78	-1.9	i	0.97	10	93
15	CCc1nnc(SCc2ccc(CSc3nnc(CC)n3N)cc2)n1N	38	159	-3.3	i	1.1	1	103
16	COc1ccccc1C(=O)NCCn1cc(SCC(=O)Nc2cc(C)on2)c2ccccc21	-75	136	-1.4	i	0.69	16	101
17	CSc1nc(SCC(=O)NC(c2ccccc2)c2ccccc2)c2c3c(sc2n1)CN(C)CC3	-37	71	6.7	i	0.94	-4	102
18	Cc1ccccc1C(=O)N1CCN(c2ccc(NC(=O)c3ccccc3[N+](=O)[O-])cc2)CC1	14	92	·	i	0.93	-14	109
19	Cc1[nH]n(-c2ccccc2)c(=O)c1/C=N/c1ccccn1	36	105	-0.4	i	0.94	-2	104
20	CCOC(=O)c1[nH]c(C)c(C(=O)N(CC)CC)c1C	·	·	-1.3	i	0.85	-6	102
21	Cc1cc2oc(=O)cc(CN3CCN(S(=O)(=O)c4cccs4)CC3)c2cc1C(C)C	-37	132	-0.6	i	0.75	-6	100
22	O=C(CCNC(=O)c1ccccc1Cl)Nc1ccc(Br)c(C(F)(F)F)c1	46	83	-0.9	i	0.9	-4	105
23	CCOC(=O)CNC(=O)/C=C/c1c(Cl)cccc1Cl	-33	49	-0.2	i	1.1	-7	82
24	CC(C)OC(=O)c1cccc2c1C(=O)c1ccccc1-2	·	·	·	i	1.1	·	104
25	CC[n+]1cc(-c2ccccc2)nc(N2CCOCC2)n1	·	·	0.6	·	·	-6	92
26	CCOC(=O)C1=C(Cn2ccc(C(F)(F)F)n2)NC(=O)NC1c1ccc2c(c1)OCO2 (configuration not stated)	-167	104	-2.3	i	0.92	-15	98
27	CCOC(=O)CC1=CC(C)(CC(=O)OCC)C(C#N)(C#N)C(N)=C1C#N (configuration not stated)	-27	91	-0.5	i	0.8	-4	102
28	Cc1nn(-c2ccc(F)cc2)c(Cl)c1/C=C(\CC(=O)O)c1nc2ccccc2s1	11	47	-3.8	i	1.1	-2	97
29	NC(=O)[C@H]1CC2(CC(c3cccc(NC(=O)c4ccccc4)c3)=NO2)CN1C(=O)[C@H]1CCC(=O)N1 (some centres not stated)	·	·	-1.9	i	1.1	-9	99
30	CC(C)(C)C(=O)Cn1c(=N)n(Cc2ccccc2)c2ccccc21	·	·	-1.2	i	0.87	2	108
31	CSc1nc(C)c(CCOC(=O)c2cccc(C)c2)c(=O)[nH]1	44	106	-0.7	i	1	-6	20
32	CCOc1ccccc1OCCOc1cccc(C(F)(F)F)c1	·	·	-3.5	i	0.92	1	101

Arranged by formula weight (falling): part of the list above.
No.	SMILES	INS promoter inh	INS promoter inh cell count	GALR2 agonist	HSV replic up	HSV replic up primary fold	PKD1 kinase inh	RGS16-Gao
17	CSc1nc(SCC(=O)NC(c2ccccc2)c2ccccc2)c2c3c(sc2n1)CN(C)CC3	-37	71	6.7	i	0.94	-4	102
10	CCc1nn(CC(=O)N2CCN(Cc3ccc4c(c3)OCO4)CC2)c(=O)c2cc3occc3n12	31	88	-2.0	i	0.94	-5	103
22	O=C(CCNC(=O)c1ccccc1Cl)Nc1ccc(Br)c(C(F)(F)F)c1	46	83	-0.9	i	0.9	-4	105
18	Cc1ccccc1C(=O)N1CCN(c2ccc(NC(=O)c3ccccc3[N+](=O)[O-])cc2)CC1	14	92	·	i	0.93	-14	109
6	COc1ccc(C(=O)OCC(=O)c2ccccc2)cc1S(=O)(=O)N1CCOCC1	7	136	-0.2	i	0.89	-3	101
13	COc1cc(C2C(C#N)=C(N)N(c3cccnc3)C3=C2C(=O)CC(C)(C)C3)ccc1O (configuration not stated)	29	79	-2.4	i	0.92	-4	112
11	Cn1c(=O)c2c(nc(CN3CCc4ccccc4C3)n2CCCO)n(C)c1=O	60	107	·	i	0.92	0	106
27	CCOC(=O)CC1=CC(C)(CC(=O)OCC)C(C#N)(C#N)C(N)=C1C#N (configuration not stated)	-27	91	-0.5	i	0.8	-4	102
7	CC1=C(C(=O)OCC(C)C)C(c2ccsc2)C2=C(CCCC2=O)N1 (configuration not stated)	18	126	-0.2	i	0.96	8	106
4	CCOC(=O)c1sc(NC(=O)/C=C/c2ccc(F)cc2)nc1C	·	·	·	i	0.92	-1	101
3	N#Cc1ccccc1Sc1ccccc1C(=O)Nc1ccccc1	10	66	-1.1	i	0.93	6	100
32	CCOc1ccccc1OCCOc1cccc(C(F)(F)F)c1	·	·	-3.5	i	0.92	1	101
30	CC(C)(C)C(=O)Cn1c(=N)n(Cc2ccccc2)c2ccccc21	·	·	-1.2	i	0.87	2	108
31	CSc1nc(C)c(CCOC(=O)c2cccc(C)c2)c(=O)[nH]1	44	106	-0.7	i	1	-6	20
2	CCN(C(=O)COC(=O)c1cnc(C)cn1)C1CCCCC1	-16	119	-3.3	i	0.98	-10	103
8	CN(C)CC(C)(C)CNC(=O)c1cc(=O)c2ccccc2o1	·	·	-3.5	i	0.93	0	102
9	COC(=O)[C@H](CCSC)NC(=O)Nc1ccc(C)cc1	·	·	-0.1	i	0.99	0	98

More structures:
No.	SMILES	INS promoter inh	INS promoter inh cell count	GALR2 agonist	HSV replic up	HSV replic up primary fold	PKD1 kinase inh	RGS16-Gao
33	O=C(CC1C(=O)NCCN1Cc1ccc(-c2ccccc2)cc1)NC1CCC1 (configuration not stated)	·	·	·	i	1	-7	75
34	Nc1cccc2c1C(=O)N(C(=O)/C=C/c1cccc(F)c1)C2=O	-173	81	·	i	0.66	6	98
35	N#Cc1c(-c2ccc(Cl)cc2Cl)nc2n(c1=O)CCS2	0	68	-1.5	i	0.91	0	45
36	COc1ccc(S(=O)CC(=O)Nc2ccccc2Cl)cc1 (configuration not stated)	28	104	·	i	1.1	-2	99
37	Clc1cccc(Cc2ccc(Cl)nn2)c1	-46	167	·	i	1	-6	103
38	C=CCn1c(=O)/c(=C2/SC(C)=C(C)N2CC)s/c1=C1/C(=O)N(C)C(=S)N1c1ccccc1	60	103	-1.1	·	·	-11	·
39	O=c1oc2ccccc2c(Nc2ccccc2)c1[N+](=O)[O-]	-39	148	-2.9	i	0.85	2	101
40	CSc1nc2ccc(NS(=O)(=O)c3ccc([N+](=O)[O-])cc3)cc2s1	·	·	·	i	1	·	106
41	COc1cc(/C(C)=N/NC(=O)Cc2c(C)[nH][nH]c2=O)ccc1O	26	156	-0.3	i	0.93	11	99
42	CN1CCN(Cc2nc(N)nc(Nc3ccc4c(c3)OCCO4)n2)CC1	·	·	-1.3	i	1	2	104
43	COc1ccc(C(=O)C2CCN(C(=O)c3ccc(C)cc3)CC2)cc1	51	79	-1.5	i	1	-7	103
44	O=C(Nc1nc(-c2ccccn2)cs1)C1CC1	·	·	-0.4	i	0.89	-5	103
45	CC1(C)CC(=O)C=C(NC2CCCCCCC2)C1	11	106	-0.1	i	0.86	-5	99
46	Cc1cc(=O)oc(C)c1C(=O)OCC(=O)c1ccccc1	·	·	0.1	i	0.86	3	108
47	CCOC(=O)C1=C(C)N=c2s/c(=C\c3cc(OC)c(OC)c(OC)c3)c(=O)n2C1/C=C/c1ccccc1 (configuration not stated)	·	·	-1.4	i	1.1	3	100
48	O=C(c1cccs1)N(c1ccc(Br)cc1)C1C=CS(=O)(=O)C1 (configuration not stated)	19	82	·	i	1	-2	97
49	O=C1C2CCCN2c2ccc(S(=O)(=O)N3CCOCC3)cc2N1Cc1ccccc1F (configuration not stated)	-7	116	-0.1	i	0.89	12	101
50	Cc1ccnc(NC(=O)CCC(=O)N(CC(=O)NC(C)(C)C)c2ccc3c(c2)OCCO3)c1	·	·	·	i	0.88	-5	101
51	CCCn1ccc(O)c(Cc2ccc(Cl)cc2)c1=O	·	·	·	i	0.83	-5	93
52	Cc1cc(-c2c(C)n([O-])c(C)c(C)[n+]2=O)ccc1F	·	·	0.3	i	0.96	-2	112
53	CCN(CC(=O)NCc1ccc(Cl)cc1)C(=O)c1ccc(S(=O)(=O)N(C)C)cc1	-83	65	·	i	0.83	1	94
54	Cc1ccnc(SCC(=O)N2CCN(c3cccc(Cl)c3)CC2)n1	15	33	-0.7	i	1.1	-5	93
55	CCC(Sc1nnc(C)s1)C(=O)Nc1nccs1 (configuration not stated)	-9	124	-1.2	i	0.94	-5	110
56	COc1ccc(Nc2oc(COc3ccc(OC)cc3)nc2C#N)cc1	19	51	-0.1	i	1	-8	101
57	Cc1c2ccccc2nc2c(F)c(N(C)C)c(F)c(F)c12	-176	72	0.5	?	·	7	88
58	COC(=O)Nc1nnc(-c2ccc(OC)cc2)s1	·	·	·	i	1	·	100
59	COC(=O)C1CCN(C(=O)C(C)Oc2ccc(Cl)cc2Cl)CC1 (configuration not stated)	38	92	-0.5	i	1	0	104
60	CCCn1nnnc1SCC(=O)N1CCCc2ccccc21	3	180	-0.9	i	0.96	-4	142
61	Cc1ccc(C)c(NC(=O)c2nc(-c3ccccc3)n(-c3ccccc3)n2)c1	·	·	-1.4	i	1	4	97
62	Cc1ccc(NC(=O)CS(=O)CC(=O)Nc2cccc(C)c2C)cc1F (configuration not stated)	·	·	-1.3	i	1.1	-11	96
63	COc1cc2c(cc1OC)C(/C(C#N)=N\O)=NC(C)(C)C2	14	104	-2.9	i	0.85	1	99
64	O=C(Nc1ccccc1Cl)c1ccccc1Oc1ccc(C(F)(F)F)cc1[N+](=O)[O-]	14	66	0.4	i	0.91	-7	104
65	Cc1cc(C)c(C)c(S(=O)(=O)N2CCN(CC(=O)Nc3ccc([N+](=O)[O-])cc3)CC2)c1C	-29	140	-2.6	i	0.77	-6	100
66	Cc1c(-n2c(SCC(=O)NC(C)C(C)C)nc3ccccc3c2=O)c(=O)n(-c2ccccc2)n1C (configuration not stated)	·	·	·	i	1	11	104
67	CNC(=O)Nc1cccc(NC(=O)NC)n1	·	·	-0.8	·	·	33	105
68	O=C1CCCN1CCC1CCCCN1Cc1nc(COc2ccccc2)no1 (configuration not stated)	·	·	·	i	1	-2	90
